From PubChem BioAssay
D2 potentiator: positive allosteric modulators of human D2 dopamine receptor. P14416. DiscoveRx D2 beta-arrestin cells, luminescence, 90 min; 100% = 57 uM dopamine signal. potentiation, % (test concentration not listed). 0.23% of 360,000 active. AID 624464; active = potentiation of 50% or more; inconclusive = 30% to 50%; inactive = 30% or less;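 also: compound concentration not given in the record; tested on top of an EC20 dose of dopamine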
Target sequence (P14416 whole entry, looked up): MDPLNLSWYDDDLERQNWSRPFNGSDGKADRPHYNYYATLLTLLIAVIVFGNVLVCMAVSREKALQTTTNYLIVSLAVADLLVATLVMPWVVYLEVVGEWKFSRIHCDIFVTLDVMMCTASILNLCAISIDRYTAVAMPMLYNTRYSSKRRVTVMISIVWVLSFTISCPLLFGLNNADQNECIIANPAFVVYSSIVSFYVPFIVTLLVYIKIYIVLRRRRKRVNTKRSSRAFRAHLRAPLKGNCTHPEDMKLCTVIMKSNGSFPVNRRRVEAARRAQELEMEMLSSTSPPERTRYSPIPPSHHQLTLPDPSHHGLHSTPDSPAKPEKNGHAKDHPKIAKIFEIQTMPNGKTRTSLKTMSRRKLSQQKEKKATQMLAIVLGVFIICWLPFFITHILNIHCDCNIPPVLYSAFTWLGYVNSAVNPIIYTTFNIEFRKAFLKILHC
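D2 cells co-treated with compound plus 50 nM dopamine (EC20) for 90 min at 37 deg C to detect potentiation. Beta-arrestin recruitment was read as enzyme-fragment luminescence after 1 h at ambient temperature. Full response was set by 57 uM dopamine.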
CtBP-E1A blk: CtBP/E1A binding inhibition. 0.49% of 340,000 active. activity change, % (concentration not given with the values). AlphaScreen GST-E1A/His-CtBP binding, 1536-well; stronger effect = lower value; control for the full effect not named in the record; in the data active means activity change below about -65%; inconclusive means about -30% to -65%; inactive means above about -30%; also: % is scaled to controls: 0 for no effect and ±100 for the full control effect
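AlphaScreen with 125 nM GST-E1A and 125 nM His-CtBP (5X stocks) in Tris pH 8.0, 300 mM NaCl, BSA, Tween 20, TCEP. Compounds preincubated 2 h at 37 deg C, then glutathione donor/nickel acceptor beads added for 1 h at 37 deg C in dark.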
TRPML1 inh: human mucolipin-1 channel inhibition; TRPML1-inducible cells, Ca2+ dye fluorescence, FDSS; stronger effect = lower value; inhibition of EC80 agonist-evoked calcium signal; activity change, negative = inhibition, % (test concentration not listed); 0.02% of 390,000 active; AID 624415; in the data active means activity change below about -50%; inconclusive means about -30% to -50%; inactive means above about -30%;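 also: stimulus is agonist 54-4 at its EC80 concentration; % is scaled to controls: 0 for no effect and ±100 for the full control effect; compound concentration not given in the record; the text of the record puts the active cut at -80%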
Target sequence (Q9GZU1 whole entry, looked up): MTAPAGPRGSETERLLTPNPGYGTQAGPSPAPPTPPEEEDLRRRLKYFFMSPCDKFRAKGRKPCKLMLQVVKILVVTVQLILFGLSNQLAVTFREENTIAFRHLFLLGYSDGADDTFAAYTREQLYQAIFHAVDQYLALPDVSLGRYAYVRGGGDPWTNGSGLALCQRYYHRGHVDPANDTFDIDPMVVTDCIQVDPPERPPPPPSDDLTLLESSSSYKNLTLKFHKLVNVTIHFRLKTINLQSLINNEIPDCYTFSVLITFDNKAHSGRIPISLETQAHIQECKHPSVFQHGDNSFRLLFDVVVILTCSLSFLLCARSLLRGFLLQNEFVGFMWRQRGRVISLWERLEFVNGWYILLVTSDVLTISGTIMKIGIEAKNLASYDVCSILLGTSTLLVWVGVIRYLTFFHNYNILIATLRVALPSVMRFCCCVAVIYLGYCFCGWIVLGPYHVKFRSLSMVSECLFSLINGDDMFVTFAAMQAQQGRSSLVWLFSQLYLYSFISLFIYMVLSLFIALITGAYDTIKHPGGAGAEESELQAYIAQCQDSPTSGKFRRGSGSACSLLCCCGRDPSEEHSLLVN
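Tet-induced TRPML1-DL cells loaded with Ca8 no-wash calcium dye were read kinetically on FDSS. Compound addition was followed by EC80 agonist 54-4 (4 uM final); inhibition was read over 110 s.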
Six1-Eya2 inh: Six1/Eya2 interaction inhibition; Q15475+O00167; AlphaScreen GST-Six1/His-Eya2 binding, biochemical; stronger effect = lower value; control for the full effect not named in the record; activity change, % (concentration not given with the values); 0.56% of 360,000 active; AID 651725; in the data active = activity change below about -65%; inconclusive = about -30% to -65%; inactive = above about -30%; also: % is scaled to controls: 0 for no effect and ±100 for the full control effect
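AlphaScreen with GST-Six1 and His-Eya2 (5X mix: 250 nM and 500 nM), glutathione donor and nickel acceptor beads; buffer 50 mM Tris pH 8.0, 300 mM NaCl, 1 mM TCEP; 1 h at 37 C in the dark.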
TRPML1 ag: activates the human TRPML1 channel; 0.12% of 410,000 active; AID 624414; Q9GZU1; TRPML1-expressing cells, Ca2+ dye fluorescence, FDSS; host cell line not named in the record; reference of the full effect not given here; activation, % (test concentration not listed); in the data active = activation above about 50%; inconclusive = about 30% to 50%; inactive = below about 30%; also: 0% is about no effect; the text of the record puts the active cut at 80%
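Kinetic FDSS Ca2+ read in Tet-induced TRPML1-DL cells (ABD Ca8 dye plus quencher, 45-90 min RT loading): baseline, then compound, then 110 s agonist window; EC80 agonist 54-4 at 4uM final added afterwards for a 110 s antagonist window.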
TRPV1 potentiator: potentiators of human vanilloid receptor 1 (TRPV1). TRPV1-expressing cells, Fluo-8 calcium influx, capsaicin EC20 potentiation; host cell line not named in the record; control for the full effect not named in the record. 0.02% of 320,000 active. AID 540277. potentiation, % at 8.33 µM; active means potentiation above 80%; inconclusive means 30% to 80%; inactive means below 30%; also: 0% is about no effect
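Cells expressing TRPV1 were dye-loaded with Fluo-8 and read kinetically: 10 s baseline, 3 min after compound (agonist portion), then 2 min after EC20 capsaicin (allosteric enhancer portion). Calcium-bound dye fluorescence at 480/520 nm.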
Starred values were filed as active, the others as inactive; ? = inconclusive; · = no result given; & = joins results of further samples.

Values run as follows: D2 potentiator	CtBP-E1A blk	TRPML1 inh	Six1-Eya2 inh	TRPML1 ag	TRPV1 potentiator
CC(Sc1nnc(-c2cccs2)n1-c1ccccc1)C(=O)NCc1ccco1 (configuration not stated)
→ -29	2	-1	2	0.7	1
CNC(=O)C[C@H]1C(=O)N(c2ccc(OC)cc2)C[C@@H]1CSC
→ -1	4	0	2	-0.7	·
CC(CC(=O)Nc1ccncc1)c1ccccc1 (configuration not stated)
→ -7	5	10	10	-0.3	-15
NC(=O)Nc1ccc(C(=O)OCC(=O)Nc2ccc(Cl)cn2)cc1
→ 6	-2	15	4	0.2	8
O=C(NCc1ccccn1)c1cccc(S(=O)(=O)N2CCCCC2)c1
→ -4	-8	1	5	1.1	21
CCCN(CCC)c1nc2ccccc2nc1C(C#N)C(=O)OCCOC (configuration not stated)
→ -6	6	9	0	1.1	-3
Cc1cccc(NC(=O)C2NC(=O)CC2c2ccccc2)c1C (configuration not stated)
→ -2	-12	-18	0	0.6	2
Cc1nc2oc3ccc(F)cc3c(=O)c2cc1C(=O)O
→ 1	-6	-6	1	0.3	1
CCOc1ccc(C(=O)NCC(=O)NCC(c2ccco2)N2CCCCC2)cc1 (configuration not stated)
→ -7	3	10	2	5.0	4
Oc1ccc(NC(=S)Nc2ccc(O)cc2)cc1
→ -2	-9	7	0	-0.2	14
COc1cc(NC(=O)CSc2nnnn2Cc2ccc3c(c2)OCO3)cc(OC)c1
→ -5	8	4	1	2.2	-4
CCN(CC)S(=O)(=O)c1ccc(C(=O)NC2=NCCS2)cc1
→ -5	9	8	7	0.1	-7
O=C(C1CCN(S(=O)(=O)N2CCCCC2)CC1)N1CCCCC1
→ -21	13	-2	3	0.0	-11
COc1ccc(Cl)cc1NC(=O)CN(C)C(=O)C1CC(=O)N(Cc2ccc(C)cc2)C1 (configuration not stated)
→ -68	1	11	-6	-0.2	-13
COc1ccc(NC2CCCN(C(=O)CCC3=NNC(=O)CC3)C2)cc1 (configuration not stated)
→ -10	-1	19	5	-0.7	5
CCc1cc2c3c(c(=O)oc2cc1OC(C)C(=O)O)CCCC3 (configuration not stated)
→ -4	-8	?	-16	-0.1	6
COc1ccc(CCN2CC(C(=O)NCCc3ccccc3)CC2=O)cc1OC (configuration not stated)
→ -8	5	-11&-13	6	-0.9&0.2	11
CCn1c(SCC(=O)Nc2ccc(NC(C)=O)cc2)nnc1C1CC1
→ -16	-4	17	3	0.0	-7
CCOc1cc(-c2noc(CCC(=O)N3CCOCC3)n2)ccc1OC
→ -13	2	1	0	-0.3	-15
O=C(COC(=O)c1ccc(Sc2ccccc2)c([N+](=O)[O-])c1)NC1CCS(=O)(=O)C1 (configuration not stated)
→ -12	-1	-1	-18	0.8	-9
CNC(=O)c1ccccc1NC(=O)c1c(O)c2c([nH]c1=O)CCCC2
→ 7	-4	16	-2	0.6	8
COc1ccc(N2CCN(S(=O)(=O)CCNC(=O)c3cc(=O)c4ccccc4o3)CC2)cc1
→ -8	-16	6&-1	7	0.3&0.9	-1
Cc1ccc2nc(C(Cl)(Cl)Cl)nc(N/N=C/c3ccc([N+](=O)[O-])cc3)c2c1
→ 3	6	-10	8	-0.1	·
COc1ccc(CNC(=O)CCCNS(=O)(=O)c2cccc3nonc23)cc1
→ 2	3	-7	6	-0.4	0
O=Cc1ccc(Sc2nnc(-c3ccccc3)o2)c([N+](=O)[O-])c1
→ 12	4	4	-16	6.0	15
Cc1c[nH]c(=O)c([N+](=O)[O-])c1
→ -13	·	12	-3	0.2	-1
CCOC(=O)c1nn(-c2ccc(C)cc2)c2nc(Nc3ccccc3)cc(=O)n12
→ 18	-1	-1	-2	-1.8	16
O=C(CCNC(=O)Cn1ccc2ccccc2c1=O)NCCCN1CCN(c2ccc(F)cc2)CC1
→ -14	6	3	3	-1.3	23
C/C(N)=C(/C#N)C(=O)CN1C(=O)NC(Cc2c[nH]c3ccccc23)C1=O (configuration not stated)
→ -12	2	·	-1	·	19
CC1(C)CC(=O)c2sc(NC(=O)c3ccc4ncsc4c3)nc2C1
→ -1	-2	-1	-5	-0.2	-25
Cn1c(-c2cc3c(C(F)(F)F)nn(C)c3s2)n[nH]c1=S
→ -3	-4	11	-13	-1.3	·
Cc1cc(NC(=O)COC(=O)COc2ccc(C(=O)c3ccccc3)cc2)no1
→ -7	7	18	7	2.4	0
CC1(CCc2ccccc2)NC(=O)N(CC(=O)Nc2c(F)cccc2F)C1=O (configuration not stated)
→ -2	7	18	2	-0.8	·
COc1ccccc1NC(=O)C1CCN(C(=O)NCc2ccccc2)CC1
→ -8	6	-15	0	1.1	8
O=C(CCc1ccccc1)Nc1ccccc1
→ -3	0	-3	-2	0.1	-4
COc1ccc(-c2sc3cc4c(cc3c2-c2ccc(OCCN3CCCCC3)cc2)OCO4)cc1
→ ·	-6	29	-7	0.2	·
O=C(CSc1nccc(=O)[nH]1)Nc1ccccc1Sc1ccccc1
→ 1	0	14	5	-0.3	7
O=C(Nc1c(C(=O)N2CCCCC2)cnn1-c1ccccc1)c1ccccc1
→ -5	1	-3	0	-1.2	15
COC(=O)c1cccc(NC(=O)NC23CC4CC(CC(C4)C2)C3)c1
→ -3	3	-7	10	-1.1	17
CCC(=O)Nc1c2c(nn1-c1ccc(F)cc1)CS(=O)(=O)C2
→ -4	7	3	-4	0.7	1

Compounds from the list above containing an NH in an aromatic ring (5):
Values run as follows: D2 potentiator	CtBP-E1A blk	TRPML1 inh	Six1-Eya2 inh	TRPML1 ag	TRPV1 potentiator
CNC(=O)c1ccccc1NC(=O)c1c(O)c2c([nH]c1=O)CCCC2
→ 7	-4	16	-2	0.6	8
Cc1c[nH]c(=O)c([N+](=O)[O-])c1
→ -13	·	12	-3	0.2	-1
C/C(N)=C(/C#N)C(=O)CN1C(=O)NC(Cc2c[nH]c3ccccc23)C1=O (configuration not stated)
→ -12	2	·	-1	·	19
Cn1c(-c2cc3c(C(F)(F)F)nn(C)c3s2)n[nH]c1=S
→ -3	-4	11	-13	-1.3	·
O=C(CSc1nccc(=O)[nH]1)Nc1ccccc1Sc1ccccc1
→ 1	0	14	5	-0.3	7

(listing goes on)
Values run as follows: D2 potentiator	CtBP-E1A blk	TRPML1 inh	Six1-Eya2 inh	TRPML1 ag	TRPV1 potentiator
O=C(O)C1CCN(S(=O)(=O)c2ccc(N3CCCC3C(=O)O)c([N+](=O)[O-])c2)CC1 (configuration not stated)
→ -24	4	7	4	-0.1	1
COCOc1cccc(CN2CCC(C)(Oc3ccc(C(C)=O)cc3)C2)c1 (configuration not stated)
→ -5	1	·	-10	5.4	·
CCOc1ccc(NC(=O)CSc2nnc(C)n2C2CC2)cc1S(=O)(=O)N1CCCC1
→ -5	0	-5	2	-0.3	1
COc1ccc(C(=O)NCCCSC)cc1OC1CCN(C(C)C)CC1
→ -4	0	6	15	0.0	-14
COCCNc1oc(COc2cccc(C)c2)nc1C#N
→ -20	-1	-5	-3	1.9	2
COc1ccccc1N1CCN(Cc2cccs2)CC1
→ -26	-11	5	-7	-0.4	-8
CCOC(=O)C1=CC[C@@H](c2ccc(OC)cc2)N(S(=O)(=O)c2ccc(C)cc2)[C@H]1CC
→ -10	-5	74	4	2.9	·
CCOC(=O)c1cc2n(c1/N=C/N(C)C)-c1ccccc1C2=O
→ -4	11	-22	5	?	-22
O=C1C(=O)N(CCCN2CCOCC2)C(c2ccc([N+](=O)[O-])cc2)/C1=C(\O)c1ccc2c(c1)OCCO2 (configuration not stated)
→ -13	-3	35	1	0.1	-9
CC(=O)Oc1ccccc1Cn1c(C)c(C(=O)NCc2cccc(Cl)c2)sc1=O
→ 4	-22	·	?	0.0	·
COc1cc2c(cc1OC)C(c1ccc(Br)cc1)NC(=O)C2 (configuration not stated)
→ -2	-6	4	3	0.3	8
Nc1ccc(S(=O)(=O)Nc2nccs2)cc1
→ -9	-4	-7	-16	-0.5	·
CCOC(=O)c1cccc(C2=CC(=O)C[C@H](c3ccc(Cl)cc3)C2)c1
→ -4	5	-8	1	-0.3	-9
Cc1ccc(C)c(C(=O)CN2C(=O)C(=O)N(C3CCCC3)C2=O)c1
→ 1	15	41	12	-0.4	-20
CCN(CC)CCCNC(=O)C(C)n1c2ccccc2c2nc(=O)cc(C)n21 (configuration not stated)
→ -9	1	-6	6	0.0	·
Nc1nncn1C(=O)c1c(Cl)cccc1Cl
→ 6	-5	-4	-1	2.3	-11
COC(=O)c1ccccc1NC(=O)c1cc(-c2ccco2)on1
→ -1	-3	25	4	0.9	11
CCOC(=O)c1ccccc1NC(=O)CSc1nnnn1C1CCCCC1
→ -41	14	7	2	0.8	-15
CCC(=O)Nc1ccc(NC(=O)CSc2nnc(-c3ccc(O)cc3)n2CC2CCCO2)cc1 (configuration not stated)
→ 4	0	32	-5	-0.2	-3
Cc1cc(F)ccc1NC(=O)C1CCN(S(=O)(=O)c2ccc3c(c2)CCCC(=O)N3)CC1
→ -7	-1	-4&0	-4	-0.2&0.8	-5
O=C(Cn1nnc(-c2cc(Cl)ccc2-n2cnnn2)n1)N1CCCc2ccccc21
→ -14	-4	7	2	0.4	-12
CCCCNCc1cc(Br)c(OCC(=O)N2CCOCC2)c(OC)c1
→ -10	15	-25	4	0.7	4
O=C(CCCCCn1c(SCc2ccncc2)nc2ccccc2c1=O)NCc1ccco1
→ 0	-15	-11	-15	1.0	4
COc1ccc(S(=O)(=O)N2CCOC2CNC(=O)C(=O)NCc2ccccc2OC)cc1 (configuration not stated)
→ 30	-2	-29	-9	-0.3	-7
O=[N+]([O-])c1cc(S(=O)(=O)N2CCCC2)ccc1N/N=C/c1ccccn1
→ -21	16	7	0	0.4	-10
CC(=O)c1sc(NC(=O)c2ccccc2F)nc1C
→ -9	7	8	3	-0.4	0
COc1ccc(NC2CCCN(C(=O)c3cccs3)C2)cc1 (configuration not stated)
→ -2	3	-8	-5	-1.1	-17
O=C(COC(=O)c1cnccn1)c1ccc(Cl)c([N+](=O)[O-])c1
→ -42	-3	-8	-15	0.0	-3
C/C(=N\NC(=O)C1CC1c1ccccc1)c1ccc(C)s1 (configuration not stated)
→ -25	0	17	4	1.1	-4
COc1ccc(S(=O)(=O)N2CCOCC2)cc1NC(=O)c1cc2ccccc2o1
→ 5	-8	2	-13	0.2	23
O=C(NNC(=S)Nc1ccc(Cl)cc1Cl)C1CC1
→ -30	3	8	-3	0.0	-3
CCOC(=O)N1CCN(C(=O)C2CCC(=O)N(CCCc3ccccc3)C2)CC1 (configuration not stated)
→ -4	2	-7	3	0.5	2
Cc1cc(C)c(S(=O)(=O)Nc2nnc(C)s2)c(C)c1
→ -12	5	0	1	-0.3	-2
Cc1ccc(S(=O)(=O)N2CCN(CC(=O)N/N=C\c3ccncc3)CC2)cc1
→ -11	-7	26	-20	0.7	-2
COc1cc(C(=O)NCCOc2cc(C)cc(C)c2)c(Br)c(OC)c1OC
→ -7	8	-7	5	2.5	10
CSc1cccc(NC(=O)Cn2cnc(S(=O)(=O)N3CCCC3)c2)c1
→ -15	8	1&-12	0	0.2&-1.0	6
